AID504770: growth inhibition of E. coli YBA685, primary screen, V. cholerae RctB inhibitors; z-score (concentration not given with the values); AID 504770, 2011; 130,000 compounds, 0.27% hits; E. coli YBA685 rctB-dependent plasmid, OD600 growth, 3 h; hits give low values;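 active means z-score under -2 on both plates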;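 further: wells of about 30 µL received 100 nL stock; score is relative to mean and SD of the test wells; the first replicate is given; strong numbers were not always called active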
Ba CapD inh: Bacillus anthracis CapD inhibitors, primary screen, biochemical, fluorescence intensity; CapD gamma-glutamyltranspeptidase (Bacillus anthracis Ames Ancestor); purified CapD enzyme, fluorescence intensity read-out; hits give low values; some hits fall short of the stated cut; z-score (concentration not given with the values); 140,000 compounds, 0.23% hits; AID 492967, 2010;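 active means z-score under -4 in either of two replicates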;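 further: stock transfer was 100 nL into about 40 µL; score is relative to mean and spread of the plate; one replicate is shown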
Active calls of the source: *; . = no result given.

SMILES	AID504770	Ba CapD inh
O=C(CC(C(=O)O)N1CCN(c2ccc3c(c2)OCO3)CC1)c1ccc(C2CCCCC2)cc1 (centres undefined)	0.95	-0.71
COc1ccc(NC(=O)CC2C(=O)OCC3CCCCN32)cc1OC (centres undefined)	0.55	.
COc1ccc(NCCC#N)cc1	.	0.4
CC1CCC(CC(=O)O)(CC(=O)O)CC1	-0.7	.
C=CCn1c(=O)c2c(nc3n2CCCN3C2CCCCC2)n(C)c1=O	1.6	-0.38
CCOc1cc(CNc2ccc(NC(=O)CC)cc2)ccc1OCc1cccs1	-0.3	0.32
C=CCNc1ncnc2sccc12	0.85	1.5
CN(Cc1ccc(-c2ccc(Cl)cc2)o1)C(C(=O)NC(N)=O)c1ccccc1 (centres undefined)	0.8	.
N#Cc1cc2c(nc1SCc1ccc([N+](=O)[O-])cc1)C1CCN2CC1	.	-0.32
COC(=O)c1ccccc1S(=O)(=O)Nc1cc(Cl)ccc1C	0.6	.
C#CC(CC)(CC)NC(=O)NC(=O)c1ccc(F)c(Cl)c1	.	0.06
CCOc1ccccc1-c1c(C#N)c(N)nc(OC)c1C#N	.	0.82
Cc1ccc(C(=O)COC(=O)c2ccc(-c3nnc(-c4ccccc4)o3)cc2)cc1C	0.05	0.53
CC(C)(C)Cc1cc(N)on1	-2*	.
CCc1c(O)nc(SCC(=O)N2CCc3ccccc32)n(-c2ccc(F)cc2)c1=O	0.65	-0.06
CCCC1CCC(c2ccc(C#N)c(=O)[nH]2)CC1 (centres undefined)	-0.3	30
CCOc1ccccc1N1CCN(C(=O)OCc2cccc(OCc3ccccc3)c2)CC1	.	0.24
COc1ccc(CO/N=C(/C)c2ccc3noc(-c4ccccc4)c3c2)cc1	.	-0.68
Cc1ccc(CN(C(=O)Nc2ccc(C)c(F)c2)C2CCN(Cc3ccccc3)CC2)o1	-0.15	-0.48
COc1cccc(N2CCN(S(=O)(=O)c3cc4c(cc3C)N(C)CCO4)CC2)c1	0	5.8
CCc1ccc(C2CC(=O)NC3=C2C(=O)CC(C)(C)C3)cc1 (centres undefined)	-0.95	2.3
Cc1cc(S(=O)(=O)N2CCCN(c3nc4ccc(Cl)cc4s3)CC2)c(C)cc1Cl	-0.75	-0.07
CNS(=O)(=O)c1cc(-c2nnc(N3CCOCC3)c3ccccc23)ccc1C	.	-0.32
N#Cc1c(NC(=O)COc2ccc(Cl)cc2)oc(-c2ccccc2)c1-c1ccccc1	.	0.85
CCn1c(O)c(/C(C)=N/c2ccnn2C2CCCCC2)c(=O)n(CC)c1=S	0.75	.

The final 4 compounds of the part above come first, to join the parts.
SMILES	AID504770	Ba CapD inh
Cc1cc(S(=O)(=O)N2CCCN(c3nc4ccc(Cl)cc4s3)CC2)c(C)cc1Cl	-0.75	-0.07
CNS(=O)(=O)c1cc(-c2nnc(N3CCOCC3)c3ccccc23)ccc1C	.	-0.32
N#Cc1c(NC(=O)COc2ccc(Cl)cc2)oc(-c2ccccc2)c1-c1ccccc1	.	0.85
CCn1c(O)c(/C(C)=N/c2ccnn2C2CCCCC2)c(=O)n(CC)c1=S	0.75	.
O=C1CCC(C(=O)OCn2nnc3ccccc3c2=O)=NN1	-1.9	.
CC(C)(C)OC(=O)N1CCC(CNS(=O)(=O)c2cccs2)CC1	1.2	-0.06
CCn1cc(NC(=S)Nc2cc(Cl)ccc2OC)c(C(N)=O)n1	1.5	-1.1
Cc1cc(OCCNCCN)cc(C(C)C)c1	-0.65	-0.085
CCCCOc1ccc(C2C(N3C(=O)c4ccccc4C3=O)C(=O)N2c2ccc(OC)c(Cl)c2)cc1 (centres undefined)	.	-0.07
COc1cccc(C2C(C(=O)Nc3ccccc3)=C(C)N=C3SCC(=O)N32)c1 (centres undefined)	1.8	-2.1
O=C(CCCn1c(=O)[nH]c2ccccc2c1=O)NCc1ccc2c(c1)OCO2	-0.95	0.11
Cc1ccc(-c2nn(-c3ccccc3)cc2/C=C2\SC(=S)N(CCCC(=O)O)C2=O)cc1	-0.7	-1.6
CON(C)C(=O)CSc1cc(Cl)nc(Cl)c1	.	0.04
Cc1ccc(-n2cc(-c3ccccc3)c3c(NCCCN(C)C)ncnc32)cc1Cl	.	-0.025
Cc1ccccc1Nc1nc(N)nc(CNCCCN2CCCCCC2=O)n1	2.3	.
O=C(CN1CCN(c2ccccc2Cl)CC1)NCC(F)(F)F	-0.2	.
COc1ccccc1CC(=O)NCC(c1ccco1)N1CCCCC1 (centres undefined)	0.4	.
OCCN1CCN(c2ncc(C(F)(F)F)cc2Cl)CC1	.	0.15
O=c1c2ccccc2nc2ccc(NCc3ccco3)nn12	-0.7	3.1
CC1=Nc2ccc(N)cc2C1(C)C	0	.
Cc1occc1-c1nnc(SC(C)c2nc3sc4c(c3c(=O)[nH]2)CCC(C)C4)n1N (centres undefined)	1.3	.
CNCc1ccccc1OC	-0.7	.
CCOC(=O)c1cc2c(ccn2C)n1Cc1ccc(OC(F)(F)F)cc1	0	.
CCOC(=O)C1=C(O)/C(=C/c2ccc(F)cc2)SC1=Nc1ccc([N+](=O)[O-])cc1	.	-0.12
C=CC(=O)Nc1ccc(OC(F)(F)F)cc1	1.5	0.065
O=C(N/N=C/c1c[nH]c2cnc(OCc3ccccc3)cc12)c1csc(CS(=O)(=O)Cc2ccco2)n1	.	11
CCOC(=O)c1c(NC(=O)c2cccc(Cl)c2)sc(C(=O)Nc2ccc(C)c(Cl)c2)c1C	.	-0.065
CC(=O)Nc1nc2c(c3c1c(=O)oc1ccccc13)CC(C(C)(C)C)CC2 (centres undefined)	.	-0.28
O=C1CSC(/N=C/c2ccccc2O)=NN1	0.65	-0.47

Of the compounds above, three have a COOH group.
SMILES	AID504770	Ba CapD inh
O=C(CC(C(=O)O)N1CCN(c2ccc3c(c2)OCO3)CC1)c1ccc(C2CCCCC2)cc1 (centres undefined)	0.95	-0.71
CC1CCC(CC(=O)O)(CC(=O)O)CC1	-0.7	.
Cc1ccc(-c2nn(-c3ccccc3)cc2/C=C2\SC(=S)N(CCCC(=O)O)C2=O)cc1	-0.7	-1.6

3 structures out of the list, sorted by count of non-hydrogen atoms, ascending.
SMILES	AID504770	Ba CapD inh
COc1ccc(NC(=O)CC2C(=O)OCC3CCCCN32)cc1OC (centres undefined)	0.55	.
CN(Cc1ccc(-c2ccc(Cl)cc2)o1)C(C(=O)NC(N)=O)c1ccccc1 (centres undefined)	0.8	.
Cc1ccc(-c2nn(-c3ccccc3)cc2/C=C2\SC(=S)N(CCCC(=O)O)C2=O)cc1	-0.7	-1.6

(next part)
SMILES	AID504770	Ba CapD inh
CCCC(=O)Oc1cc2c(C(=O)OCC)c(C)n(-c3ccccc3)c2c2ccccc12	.	1.5
CC1=CC(C)(C)N2C(=O)C3(N=C(N)NC(Nc4ccccc4)=N3)c3cc(C)cc1c32 (centres undefined)	-0.85	-0.34
C=CCn1cnnc1SCC1CCCCC1	0.5	.
CCOC(=O)C1=NN(c2ccc(Br)cc2)C2C(=O)N(c3ccc(Cl)cc3)C(=O)C12 (centres undefined)	.	-0.28
Brc1ccc(CNc2ccc(-c3nc4ncccc4o3)cc2)cc1	-0.65	135
CNC(=O)C1CC(=O)N(c2ccc(OC)cc2)C1 (centres undefined)	1.6	.
CN1CCC(N(Cc2ccc3c(c2)OCO3)C(=O)c2cn(Cc3ccccc3)c3ccsc23)CC1	1.2	.
COc1ccc(Oc2coc3cc(OC(=O)c4ccco4)ccc3c2=O)cc1	0.4	-0.02
CCOC(=O)COc1cc2oc(C)c(-c3nc4ccccc4s3)c(=O)c2cc1CC	-2.5	19
O=S(=O)(Cc1ccccc1)c1ccccc1	-1.2	-0.045
CCOC(=O)CN1C(=O)c2ccccc2S1(=O)=O	.	-0.09
CCOC(=O)CC(=O)CSc1nc2c(sc(=S)n2Cc2ccco2)c(=O)n1-c1ccc(F)cc1	.	0.12
N#Cc1ccc(S(=O)(=O)N2CCN(c3nc4ccc(Cl)cc4s3)CC2)cc1	0.1	-1
CCn1c2ccccc2c2cc(CN3CCC(NC(=O)OCC4CCCN(Cc5ccc(OC)c(OCc6ccccc6)c5)C4)C3)ccc21 (centres undefined)	.	15
CC1=C(C(=O)Nc2cccc(Cl)c2)C(c2ccc(O)cc2)NC(=O)N1 (centres undefined)	.	-0.23
O=C(Nc1ccc(Br)cc1)c1cc2c3c(c1)C1C=CCC1CN3CC1CC=CC21 (centres undefined)	.	3
C=CCNC(=S)Nc1sc2c(c1C#N)CCCC2	-1.9	-1.2
NC1=C(C(=O)NC2CC2)C(=NC2CCCCC2)SC1C(=O)Nc1cc(Cl)ccc1Cl (centres undefined)	-0.25	.
Cn1cc(C(=O)CSc2nnc(-c3ccoc3)c(-c3ccoc3)n2)c2ccccc21	0.05	.
CCN(CC)CCn1c(=S)[nH]c2cc(C(=O)NCCc3ccc(S(N)(=O)=O)cc3)ccc2c1=O	.	0.12
COC(=O)NC1CCCCC1NC(=O)OC (centres undefined)	-0.5	0.23
Cc1csc(SCC(=O)NC(C)c2ccccc2)n1 (centres undefined)	-0.25	.
COc1cccc2sc(NC(=O)c3ccc(S(=O)(=O)N4CCCC(C)C4)cc3)nc12 (centres undefined)	0	0.09
O=C(Cc1cccs1)Nc1cc(C(=O)O)cc(C(=O)O)c1	-0.45	-0.54
O=C([C@@H]1CCCN1C(=O)c1cccs1)N1CCN(Cc2ccc3c(c2)OCO3)CC1	-0.95	.
Further entries follow:
SMILES	AID504770	Ba CapD inh
CCn1c(CNC(=O)COc2c(C)cccc2C)nnc1SCC(=O)Nc1ccc(OC)cc1	0.95	0.52
COc1ccc(S(=O)(=O)N2CCCC2c2cccs2)cc1 (centres undefined)	0.8	0.18
CCN(CC)CC(=O)c1c[nH]c2ccccc12	0.2	.
c1ccc2c(C3=NNC(=NC4CCCCC4)SC3)c[nH]c2c1	-0.65	.
CCOC(=O)c1c(NC(=O)c2ccc(OC)c(OC)c2)sc(C(=O)Nc2ccccc2F)c1C	.	0.075
COC(=O)c1ccccc1-c1ccc(/C=C2\C(=O)N(C)C(=O)C(C#N)=C2C)o1	0.25	-0.35
C/C(=N\O)C(=O)Nc1ccccc1	-0.3	0.47
Cc1cc(C)c(S(=O)(=O)c2ccccc2C)c(SCc2ccccc2)n1	.	-0.29
O=S(=O)(NC1CCCCC1SC1=NCCS1)c1ccc(Cl)cc1 (centres undefined)	-0.55	-0.91
COc1ccc(NC(=O)c2ccc3c(c2)OCCO3)cc1	-1.1	-0.045
NCCCCN1CCCCC1	-0.4	.
N#Cc1cnn2c(N)c(-c3ccccc3)cnc12	-1.1	1.5
Cc1ccccc1Nc1cc(N2CCCCC2)c2noc3c2c1C(=O)c1ccccc1-3	.	-0.28
O=C(CSc1nc2ccccc2c(=O)n1CCCC(=O)N1CCN(c2ccccc2)CC1)NCc1ccco1	.	-0.025
CCc1ccc(N2C(=O)N(CC(=O)N(CC)CC)C3CS(=O)(=O)CC32)cc1 (centres undefined)	-0.1	0.025
O=C(NCc1nc(-c2ccccc2)no1)C1CCCCC1	-0.05	-1.7
S=C(NCc1ccncc1)NCc1ccco1	-0.45	1.2
COC(=O)c1cc(S(=O)(=O)N(C)Cc2ccccc2)cn1C	0.5	-0.32
CC(C)CCNC(=O)c1ccc2c(SCC(=O)O)c3c(nc2c1)CCC3	0.45	-1.4
Cn1c(=O)c2c(nc(Sc3nc4ccccc4n3CC(=O)N3CCCCC3)n2C)n(C)c1=O	1.6	.
Clc1ccc(-c2cnn(CCOCc3ccccc3Cl)c2)cc1	.	-0.47
Clc1cccc(Cl)c1CSc1nccc(/C=C/c2ccccc2)n1	.	4.7
O=C(Nc1ccccc1C(F)(F)F)c1ccc(F)c(S(=O)(=O)N2CCN(c3ccccc3F)CC2)c1	.	-0.62
O=C(NC1CCCCC1)NC1C2CC3CC(C2)CC1C3 (centres undefined)	-1	-0.01
CCOC(=O)/C(=N\Nc1ccc(Br)cc1)N1CC(C)OC(C)C1 (centres undefined)	-0.05	.
Later entries
SMILES	AID504770	Ba CapD inh
Cc1cc2c(cc1C)NC(=O)c1ccccc1C(c1ccccc1)=N2	0.7	0.17
COc1cccc(C(=O)Nc2ccc(S(=O)(=O)Nc3nccc(C)n3)cc2)c1	-0.6	-0.32
O=C(CSC1=NS(=O)(=O)c2ccccc2N1)Nc1ccccc1	0.75	-0.15
CCCCc1ccc(NC(=O)OC)cc1	-0.9	-0.13
CCc1nc2sc(C(c3ccccc3)N3CCCCC3)c(O)n2n1 (centres undefined)	2.1	.
Cc1cc(C)cc(C(=O)NCC(=O)O)c1	-0.55	-0.33
CCCn1ccnc1SCC(=O)NC(=O)NC12CC3CC(CC(C3)C1)C2	-0.8	.
CC(C)CCNC(=O)c1ccc(-n2ccc3ccccc32)s1	-1.4	34
COc1ccccc1C(=O)OC1OCCOC1OC(=O)c1ccccc1OC (centres undefined)	0.3	.
CCCN(CC(=O)Nc1ccc(Cl)cc1Cl)CN1C(=O)NC2(CCCC2)C1=O	-0.75	.
C/C(=C/C(=O)O)C(=O)Nc1ccc(C)cc1	-0.8	.
COc1ccc(/C=C/C(=O)OC2CCCCC2)cc1	-1.1	-0.43
Cc1c(CCCN)c2ccccc2n1Cc1ccccc1	1.5	-0.84
CCC(=O)c1cc(F)ccc1O	0.4	0.16
CNC(=O)NC(=O)C(C)N1CCc2ccccc2C1 (centres undefined)	-0.4	.
O=S(=O)(NCCN1CCCCCC1)c1ccc(Cl)cc1	.	0.34
COc1cccc(OC)c1/C=N/NC(=O)c1cc2ccccc2s1	.	-0.46
O=C(COC(=O)c1cccs1)Nc1c(F)c(F)c(F)c(F)c1F	0.75	-0.38
O=C(Nc1cc(C(F)(F)F)ccc1F)C1CCC1	0.8	0.26
COc1cc(NS(=O)(=O)c2cc(Cl)c(Cl)cc2Cl)c(OC)cc1Cl	.	-0.26
